# Ecoli rRNA inh: reduced GFP signal of wild-type E. coli, primary screen, bacterial rRNA inhibitor project, GFP/RFP fluorescence, OD600, single point; E. coli WT GFP vs humanized-ribosome RFP mutants, 24 h; active compounds read low; DMSO median 0, no signal -100; GFP signal change (wild-type ribosome), % (no concentration beside the values); 350,000 compounds, 1.6% hits;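 active means significant combined selectivity score with lowered wild-type GFP, culture density cut under 30%, mutant RFP and density less affected; inactive means any of these conditions unmet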; further: one replicate is shown; some compounds called inactive have numbers as strong as hits
# Ecoli rRNA inh OD600: also measured in Ecoli rRNA inh; calls as there; OD600 change, %; measured here: OD600 growth;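 optical density of the mix in the first replicate; 0 = DMSO median and -100 = no signal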
# Ecoli rRNA inh RFP: further read-out of Ecoli rRNA inh, marked with its call; RFP signal change, %; measured here: RFP humanized mutant strains;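 first replicate; 0 = DMSO median and -100 = no signal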
# Starred values were filed as active, the others as inactive; i = inactive; . = no result given.
# The opening two entries, to show the layout:
Molecule	Ecoli rRNA inh	Ecoli rRNA inh RFP	Ecoli rRNA inh OD600
C[C@@H](O)C#Cc1cnc2c(c1)C(=O)N([C@@H](C)CO)C[C@H](C)[C@H](CN(C)C(=O)c1ccccc1)O2	6	0.2	12
COCCNC(=O)C[C@H]1C=C[C@@H](NC(=O)NC2CCCCC2)[C@H](CO)O1	2	-0.2	-9

# This part in full, previewed entries included:
Molecule	Ecoli rRNA inh	Ecoli rRNA inh RFP	Ecoli rRNA inh OD600
C[C@@H](O)C#Cc1cnc2c(c1)C(=O)N([C@@H](C)CO)C[C@H](C)[C@H](CN(C)C(=O)c1ccccc1)O2	6	0.2	12
COCCNC(=O)C[C@H]1C=C[C@@H](NC(=O)NC2CCCCC2)[C@H](CO)O1	2	-0.2	-9
Cc1nc2ccc(C(=O)Nc3ccc4c(c3)OCC(=O)N4)cn2c1N(C)C(=O)CCc1ccccc1	7	0.0	12
CC(C)N(C[C@H]1N[C@H](CO)[C@@H]1c1ccccc1)C(=O)CN1CCOCC1	3	-1.7	7
O=C(C1CCCCC1)N1CC[C@@H]2[C@H](CO)Nc3ccc(Br)cc3[C@@H]21	-17	-0.2	-35
CCOC(=O)C1=C(C)OC(=CC=Cc2ccccc2)C1=O	5	5.0	11
O=C(COC(=O)c1ccc(O)cc1)Nc1cc(S(=O)(=O)N2CCCCCC2)ccc1Cl	-27	-2.9	-28
O=C(c1ccccc1)N1CC[C@H]2[C@H](CO)Nc3ccc(C#Cc4cccc(F)c4)cc3[C@H]21	-2	1.4	-1
CCC(=O)N1CC(=O)N2[C@@H](CO)[C@H](c3ccc(-c4ccc(C#N)cc4)cc3)[C@@H]2C1	-1	-1.2	-7
O=C(C[C@H]1CC[C@H](NC(=O)C2CCC2)[C@@H](CO)O1)NCCCN1CCOCC1	2	-2.6	5
COCCNC(=O)C[C@@H]1C[C@H]2c3cc(NC(=O)NC4CCCC4)ccc3O[C@H]2[C@@H](CO)O1	13	2.9	15
O=C(C[C@@H]1CC[C@H](NC(=O)c2ccc3c(c2)OCO3)[C@@H](CO)O1)NC1Cc2ccccc2C1	-6	-1.3	-12
COc1ccc2c3c(n(C)c2c1)[C@@H](CO)N(CC1CC1)CC31CCN(C(=O)c2ccc3c(c2)OCO3)CC1	-1	0.6	-5
O=S(=O)(c1cccs1)N1CCCCN2[C@H](C1)[C@H](c1ccc(Br)cc1)[C@@H]2CO	-59	-9.3	-73
C[C@@H]1CN([C@H](C)CO)C(=O)c2cc(NC(=O)Nc3ccc(F)cc3)ccc2O[C@@H]1CN(C)CC1CCCCC1	3	-1.3	-1
C[C@H]1CN([C@@H](C)CO)C(=O)c2cc(NC(=O)Nc3ccccc3)ccc2O[C@H]1CN(C)Cc1ccc(Oc2ccccc2)cc1	7	7.0	-2
O=C1NC[C@H](CCCCN2C[C@H](Cc3ccc(O)cc3)N(Cc3ccccc3)C(=O)C2=O)N(Cc2ccccc2)C1=O	4	4.4	-4
COCC(=O)N(C)C[C@H]1Oc2ncc(-c3ccccc3OC)cc2C(=O)N([C@@H](C)CO)C[C@H]1C	1	-1.2	-2
COc1ccc(C(=O)N2CCCCC2c2cc(C(=O)Nc3ccc(F)c(Cl)c3)no2)cc1 (stereo unspecified)	-8	2.2	-12
CCNC(=O)C[C@@H]1CC[C@@H]2[C@H](COc3ccc(NC(C)=O)cc3C(=O)N2C)O1	0	-1.4	-2
C[C@@H]1CN([C@H](C)CO)C(=O)Cc2cc(NC(=O)C3CCCCC3)ccc2O[C@H]1CN(C)S(=O)(=O)c1cn(C)cn1	5	-2.0	7
Cc1ccc(S(=O)(=O)Nc2ccc3c(c2)C(=O)N([C@H](C)CO)C[C@@H](C)[C@H](CN(C)S(C)(=O)=O)O3)cc1	-1	-0.3	2
COc1ccc(NC(=O)Nc2ccc3c(c2)C(=O)N([C@@H](C)CO)C[C@H](C)[C@H](CN(C)Cc2ccc(C(=O)Nc4ccccc4N)cc2)O3)cc1	1	-2.5	-8
C[C@H]1CN([C@@H](C)CO)C(=O)Cc2cc(NS(=O)(=O)c3cccs3)ccc2O[C@@H]1CN(C)Cc1ccc(-c2ccccc2)cc1	1	0.3	-2
CC(OC(=O)CCNS(=O)(=O)c1ccc(Cl)cc1)C(=O)N(C)Cc1ccccc1 (stereo unspecified)	-13	10	-11
Cc1noc(C)c1S(=O)(=O)Nc1ccc2c(c1)C(=O)N([C@@H](C)CO)C[C@@H](C)[C@@H](CN(C)Cc1ccc3c(c1)OCO3)OCCCC[C@@H](C)O2	-1	3.4	3
CCS(=O)(=O)N1CC2(CN(Cc3ccc(OC)cc3)[C@H](CO)c3c2c2ccc(OC)cc2n3C)C1	-2	3.6	-25
Cc1noc(C)c1S(=O)(=O)N(C)C[C@@H]1OCCCC[C@H](C)Oc2ccc(NC(=O)NC3CCCCC3)cc2C(=O)N([C@H](C)CO)C[C@@H]1C	1	-1.3	-3
COc1ccc(NC(=O)Nc2ccc3c(c2)C(=O)N([C@H](C)CO)C[C@@H](C)[C@@H](CN(C)S(=O)(=O)c2ccc(C)cc2)OCCCC[C@H](C)O3)cc1	-3	-1.3	6
COc1ccc(NC(=O)Nc2ccc3c(c2)C(=O)N([C@@H](C)CO)C[C@H](C)[C@@H](CN(C)S(=O)(=O)c2ccc(C)cc2)OCCCC[C@@H](C)O3)cc1	-2	-0.3	5
O=C(Nc1ccccc1)N1CCCCN2[C@H](C1)[C@@H](c1ccc(-c3ccccc3F)cc1)[C@@H]2CO	-35	-2.1	-59
O=C(Nc1nc(OCCN2CCCC2=O)cnc1/C=C\c1ccccc1)c1cc2ccccc2s1	6	0.4	12
CCCC#Cc1ccc2c(c1)O[C@@H](CN(C)C(=O)c1cnccn1)[C@H](C)CN([C@H](C)CO)S2(=O)=O	1	0.4	0
O=C(C[C@H]1CC[C@H]2[C@@H](COC[C@@H](O)CN2C(=O)c2cnccn2)O1)NCc1ccc(Cl)cc1	1	2.8	18
C[C@@H]1CN([C@@H](C)CO)C(=O)c2cc(NC(=O)C3CCCCC3)ccc2O[C@@H]1CN(C)Cc1ccc(C(=O)Nc2ccccc2N)cc1	-3	-1.8	-1
Cc1cc(N2CCN(CC(C)(C)O)C[C@@H]2C)ccc1N1CCN(Cc2ccccc2)[C@H](C)C1	-14	-0.2	-11

# Reformatted as labelled records: three of the compounds above
Cc1noc(C)c1S(=O)(=O)Nc1ccc2c(c1)C(=O)N([C@@H](C)CO)C[C@@H](C)[C@@H](CN(C)Cc1ccc3c(c1)OCO3)OCCCC[C@@H](C)O2
  Ecoli rRNA inh: -1
  Ecoli rRNA inh RFP: 3.4
  Ecoli rRNA inh OD600: 3
CCS(=O)(=O)N1CC2(CN(Cc3ccc(OC)cc3)[C@H](CO)c3c2c2ccc(OC)cc2n3C)C1
  Ecoli rRNA inh: -2
  Ecoli rRNA inh RFP: 3.6
  Ecoli rRNA inh OD600: -25
Cc1noc(C)c1S(=O)(=O)N(C)C[C@@H]1OCCCC[C@H](C)Oc2ccc(NC(=O)NC3CCCCC3)cc2C(=O)N([C@H](C)CO)C[C@@H]1C
  Ecoli rRNA inh: 1
  Ecoli rRNA inh RFP: -1.3
  Ecoli rRNA inh OD600: -3

# Additional compounds follow:
Molecule	Ecoli rRNA inh	Ecoli rRNA inh RFP	Ecoli rRNA inh OD600
C[C@H]1CN([C@@H](C)CO)C(=O)Cc2cc(NC(=O)Nc3ccc(F)cc3)ccc2O[C@@H]1CN(C)Cc1ccc(C(F)(F)F)cc1	9	0.6	5
c1ccc2c(c1)-c1ccccc1C2N1CCOCC1	11	1.2	18
C[C@H]1CN([C@@H](C)CO)C(=O)c2cccc(NC(=O)NC3CCCCC3)c2O[C@H]1CN(C)Cc1ccccc1	3	-0.3	3
COCC(=O)N1CC2(CCN(Cc3ccccc3)CC2)c2c(n(C)c3cc(OC)ccc23)[C@H]1CO	1	-4.0	-1
O=C(C[C@@H]1C[C@H]2c3cc(NC(=O)c4cccnc4)ccc3O[C@H]2[C@@H](CO)O1)NCc1ccc(Oc2ccccc2)cc1	-4	1.3	-6
CCCCn1nnnc1C1(C)CCC(=O)N1CCOC (stereo unspecified)	12	-2.8	12
CCCNC(=O)C[C@H]1CC[C@@H]2[C@H](COC[C@@H](O)CN2Cc2cccc(F)c2)O1	-3	1.1	3
C[C@@H](O)C#Cc1cnc2c(c1)C(=O)N([C@@H](C)CO)C[C@H](C)[C@@H](CN(C)Cc1ccccn1)O2	4	-1.6	4
O=C(Cn1c(=O)oc2cc(S(=O)(=O)N3CCCC3)ccc21)Nc1ccccn1	8	0.8	8
C[C@H](CO)N1C[C@H](C)[C@H](CN(C)C(=O)C2CCCCC2)Oc2cc(-c3ccc(C(=O)N(C)C)cc3)ccc2S1(=O)=O	-4	2.0	-12
CN(C)C(=O)C[C@H]1C=C[C@@H](NS(=O)(=O)c2ccccc2)[C@@H](CO)O1	-1	-1.4	-8
COc1cccc(-c2ccc3nccn3c2)c1	9	3.7	-3
O=S1(=O)CC(N2CCN(CC3CC3)CC2)CN1Cc1ccc(F)cc1 (stereo unspecified)	26	0.5	17
C[C@H]1CN([C@@H](C)CO)S(=O)(=O)c2ccc(-c3cccc(C(=O)N(C)C)c3)cc2O[C@@H]1CN(C)C	0	-3.5	0
Cc1noc(C)c1S(=O)(=O)Nc1ccc2c(c1)C(=O)N([C@@H](C)CO)C[C@@H](C)[C@H](CN(C)C(=O)Nc1ccc(F)cc1)OCCCC[C@@H](C)O2	0	0.1	-13
Cc1noc(C)c1NC(=O)Nc1ccc2c(c1)C(=O)N([C@H](C)CO)C[C@@H](C)[C@H](CN(C)C)O2	4	-2.0	5
C[C@H](CO)N1C[C@H](C)[C@@H](CN(C)Cc2ccc3c(c2)OCO3)Oc2ccc(NC(=O)Cc3ccccc3)cc2C1=O	1	-0.4	-12
Cc1ccc(S(=O)(=O)Nc2ccc3c(c2)C(=O)N([C@H](C)CO)C[C@@H](C)[C@@H](CN(C)S(=O)(=O)c2ccc(C)cc2)OCCCC[C@H](C)O3)cc1	1	-2.8	14
Cc1noc(C)c1S(=O)(=O)N(C)C[C@H]1OCCCC[C@@H](C)Oc2ccc(NS(=O)(=O)c3ccc(F)cc3)cc2C(=O)N([C@H](C)CO)C[C@@H]1C	2	1.0	-2
O=C(C[C@H]1CC[C@@H]2[C@H](COC[C@H](O)CN2CCC(F)(F)F)O1)NCc1ccc2c(c1)OCO2	i	.	.
O=C1CCCn2cc(nn2)COCCN1	4	1.1	10
C[C@H]1CN([C@@H](C)CO)C(=O)c2ccccc2-c2ccccc2CO[C@H]1CN(C)C(=O)Nc1ccc(-c2ccccc2)cc1	1	-0.1	2
CC1(C(=O)Nc2cccc3ncccc23)CCN1C(=O)Cc1ccc(-c2ccccc2)cc1 (stereo unspecified)	-54	-10	-63
CC(C)C[C@H]1COc2cccc(N3CCC[C@H]3CO)c2S(=O)(=O)N1	-17	9.6	-10
O=C(C[C@@H]1C[C@H]2c3cc(NC(=O)NC4CCCC4)ccc3O[C@H]2[C@H](CO)O1)NCC(F)(F)F	-2	1.8	4
CCCNC(=O)C1(C)CCCN(C(=O)c2oc3ccccc3c2C)C1 (stereo unspecified)	3	5.0	0
O=C(COC(=O)c1cccc(Br)c1)NC1CCCCCCC1	5	-1.1	-38
COc1ccc(-c2cnc3c(c2)C(=O)N([C@H](C)CO)C[C@@H](C)[C@@H](CN(C)S(C)(=O)=O)O3)cc1	0	-3.2	3
CC(C)=CCC[C@H](C)CC1Cc2[nH]c(=S)[nH]c(=O)c2C(c2ccc(Cl)cc2)O1 (stereo partly specified)	-4	2.1	-1
C[C@@H]1CN([C@H](C)CO)C(=O)c2cc(NC(=O)c3ccccc3)ccc2O[C@@H](C)CCCCO[C@@H]1CN(C)C(=O)C1CCCCC1	0	2.5	-5
COC(=O)C[C@H]1CC[C@@H]2[C@H](COC[C@@H](O)CN2S(=O)(=O)c2ccc(F)cc2)O1	3	-1.8	16
C[C@@H]1CCCCO[C@H](CN(C)S(=O)(=O)c2ccc(F)cc2)[C@@H](C)CN([C@@H](C)CO)C(=O)c2cc(N(C)C)ccc2O1	0	-1.0	-1
CN(C)C(=O)[C@@H]1[C@@H](CO)[C@@H]2Cn3c(ccc(-c4cccc(F)c4)c3=O)[C@H]1N2CC1CC1	-2	-3.9	-3
CC(C)CC#Cc1cnc2c(c1)C(=O)N([C@H](C)CO)C[C@H](C)[C@@H](CN(C)S(=O)(=O)c1ccccc1)O2	-1	6.3	1
CC(C)NC(=O)N1[C@H](CO)[C@@H](c2ccccc2-c2ccc(F)cc2)[C@@H]1C#N	4	0.6	-6
O=C(Nc1cc(S(=O)(=O)N2CCCC2)ccc1OCC(F)(F)F)c1ccncc1	4	-2.1	11
COc1ccc(NC(=O)Nc2ccc3c(c2)C(=O)N([C@H](C)CO)C[C@@H](C)[C@@H](CN(C)S(=O)(=O)c2cccs2)O3)cc1	2	-8.0	-16
C[C@H]1CN([C@@H](C)CO)C(=O)Cc2cc(NS(=O)(=O)c3ccc(F)cc3)ccc2O[C@H]1CN(C)C(=O)NC1CCCCC1	4	-3.7	6
C[C@H](NC(=O)C[C@H]1CC[C@H]2[C@@H](COC[C@H](O)CN2C(=O)Nc2cc(Cl)cc(Cl)c2)O1)c1ccccc1	-26	13	-39
CCOC(=O)C1=C[C@@H](C(C)(C)C)N(S(=O)(=O)c2ccc(C)cc2)[C@H]1c1ccc(C)cc1	21	-1.1	5
CNC[C@@H]1Oc2ccc(NC(=O)Nc3c(C)noc3C)cc2C(=O)N([C@@H](C)CO)C[C@@H]1C	2	-0.1	2

# Not all compounds are listed; count on the stated rates, not on these rows.
